Polio RdRp inh – poliovirus RdRp elongation inhibitors, primary screen, biochemical, fluorescence polarization, total intensity; Genome polyprotein (Poliovirus type 1 (strain Mahoney)), P03300; poliovirus polymerase elongation; hits give low values; % elongation, % (compound at 16.7 µg/mL); actives 0.66% (n = 150,000); in the data active = % elongation below about 90%; note: some results filed as inactive read as strong as hits
Target sequence (P03300 1749-2209 limits assumed): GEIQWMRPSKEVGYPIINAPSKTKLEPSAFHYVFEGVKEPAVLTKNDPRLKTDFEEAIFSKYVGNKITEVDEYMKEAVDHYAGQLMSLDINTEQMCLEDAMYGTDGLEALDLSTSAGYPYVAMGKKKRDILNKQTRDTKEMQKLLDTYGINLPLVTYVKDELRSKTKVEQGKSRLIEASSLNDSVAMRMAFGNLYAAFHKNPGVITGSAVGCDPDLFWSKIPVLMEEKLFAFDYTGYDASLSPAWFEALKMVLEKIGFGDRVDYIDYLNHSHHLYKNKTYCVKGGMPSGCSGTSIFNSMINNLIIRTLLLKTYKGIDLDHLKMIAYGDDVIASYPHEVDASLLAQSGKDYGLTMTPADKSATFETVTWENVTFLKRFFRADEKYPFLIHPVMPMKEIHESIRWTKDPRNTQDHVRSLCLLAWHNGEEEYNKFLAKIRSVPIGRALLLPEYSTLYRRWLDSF
Polio RdRp inh intensity – second read-out of Polio RdRp inh, no call of its own (marks repeat the call); % elongation; measured here: total intensity read-out; formula for this scale not given here;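 total fluorescence in place of polarization; lower means less elongation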
* = called active by the depositor. Not all compounds are listed, so the mix of outcomes need not match the whole.

cpd	Structure	Polio RdRp inh	Polio RdRp inh intensity
1	CCn1cc(C(=O)OCC(=O)Nc2cc(C)cc(C)c2)c(=O)c2ccc(C)nc21	106	109
2	Cc1ccccc1C(=O)N1CCN(CCc2ccccn2)CC1	106	104
3	Cn1c(=O)n(-c2ccc(Br)cc2F)c(=O)c2sc3ccccc3c21	108	111
4	CCCCOc1ccc(C2=NC(c3ccncc3)=Nc3ccc(Br)cc3N2)cc1	107	108
5	Cc1cc(C)c(NC(=O)Cn2c(=O)n(CCC(=O)NCc3ccc4c(c3)OCO4)c(=O)c3ccccc32)c(C)c1	102	103
6	COc1ccccc1N1CCN(C(=O)CCSCc2ccccc2F)CC1	112	111
7	CC(C)c1ccc(NC(=O)c2cc3c(s2)-c2ccccc2SC3)cc1	105	107
8	Cc1cc(C)c2c(CC(=O)Nc3ccc(F)cc3)coc2c1	112	112
9	COc1cccc(N2CCN(S(=O)(=O)c3ccc(-c4cnc(C5CC5)o4)cc3)CC2)c1	100	104
10	Brc1cccc(-c2nnc(CN3CCN(c4ccccn4)CC3)o2)c1	109	110
11	O=S(=O)(Nc1cccc(-c2ccc(N3CCCC3)nn2)c1)c1ccc(F)c(C(F)(F)F)c1	99	104
12	Cc1ccc2oc3c(c(=O)c2c1)C(c1ccc(O)cc1)N(Cc1ccc2c(c1)OCO2)C3=O (configuration not stated)	107	110
13	COc1ccc(NC(=O)CSc2nc(-c3cccs3)cc(C(F)(F)F)n2)cc1Cl	104	104
14	CCOc1ccc(N(Cc2ccccc2)C(=O)c2nc(SCC)ncc2Cl)cc1	104	101
15	COc1ccc(C(=O)NCC(c2cccnc2)N2CCN(c3ccccc3)CC2)cc1 (configuration not stated)	110	106
16	Cc1ccc(Cl)cc1NC(=O)C(Cc1ccccc1)NS(=O)(=O)c1cccc2nsnc12 (configuration not stated)	108	109
17	Cc1ccc(OCC(=O)OCc2cc(=O)n3c(C)csc3n2)cc1	100	103
18	CCOc1ccc(CC(=O)NCCc2sc3nc(-c4ccc(OC)cc4)nn3c2C)cc1	111	109
19	CC(NC(=O)CN(C)S(=O)(=O)c1ccc2c(c1)c(=O)n(C)c(=O)n2C)c1ccccc1 (configuration not stated)	100	103
20	CC1CCCCN1C(=O)Cn1ncc2c3ccccc3n(Cc3ccccc3F)c2c1=O (configuration not stated)	110	109
21	CCc1ccccc1NC(=O)C(CC)Sc1ncnc2c1sc1ccccc12 (configuration not stated)	109	112
22	COc1ccc(OC)c(NC(=O)CSc2nc3ccccc3c(=O)n2CCC(=O)NC2CCCCC2)c1	107	105
23	Cc1ccc(Cl)cc1N1CCN(C(=O)c2cc3c(=O)oc4ccccc4c3s2)CC1	105	110
24	Cc1ccc(C(C(=O)NC2CCCCC2)N(C)Cc2ccccc2)cc1 (configuration not stated)	102	103
25	Cc1ccc(NC(=O)Cn2c(=O)oc3cc(S(=O)(=O)NCc4ccccc4)ccc32)cc1	105	108

One compound at a time, from the list above. Order of screens: Polio RdRp inh | Polio RdRp inh intensity
COc1cccc(N2CCN(S(=O)(=O)c3ccc(-c4cnc(C5CC5)o4)cc3)CC2)c1 across the screens: 100 | 104
CCCCOc1ccc(C2=NC(c3ccncc3)=Nc3ccc(Br)cc3N2)cc1 across the screens: 107 | 108
CC1CCCCN1C(=O)Cn1ncc2c3ccccc3n(Cc3ccccc3F)c2c1=O (configuration not stated) across the screens: 110 | 109

Other results:
cpd	Structure	Polio RdRp inh	Polio RdRp inh intensity
26	COc1ccc(-c2cc(C(=O)NCCc3ccccc3)c3c(-c4ccccc4)[nH]nc3n2)cc1	112	117
27	O=c1[nH]c2ccc(NCc3ccc(-c4ccc(Cl)cc4)o3)cc2[nH]1	106	97
28	CCOC(=O)c1cc2c(=O)n3ccccc3nc2n(Cc2ccco2)c1=NC(=O)c1ccc(OCC)cc1	98	123
29	COc1cc(C(=O)n2nc(C)c(Sc3ccc(Cl)cc3)c2C)cc(OC)c1OC	103	106
30	O=C(Cn1cccc1C(=O)c1ccccc1)NCc1ccc(F)cc1	112	112
31	COc1ccc(OC)c(CC2C(=O)Nc3ccc(Br)cc32)c1 (configuration not stated)	108	109
32	CCN(C(=O)Cn1c(=O)n(CCCS(=O)(=O)C2CCCCC2)c(=O)c2ccccc21)c1cccc(C)c1	104	103
33	Cc1c(-c2ccccc2)nc2c(Cl)cccc2c1C(=O)OCC(=O)c1ccc(F)cc1	105	113
34	CCc1c(C)sc(NC(=O)c2cc(-c3ccc(OC)cc3)on2)c1C#N	90	93
35	Cc1ccc(CCNC(=O)CCCn2c(=O)c3ccccc3n(CC(=O)Nc3cc(Cl)ccc3C)c2=O)cc1	108	105
36	CCc1cccc(NC(=O)c2cc3c(=O)n(Cc4ccccc4)ccc3nc2C)c1	109	103
37	COC(=O)c1ccccc1N(C)S(=O)(=O)c1cc2c3c(c1)CC(=O)N3CCC2	109	106
38	Cc1ccc(CNC(=O)CN2C(=O)CSc3c2c(C)nn3-c2ccccc2)cc1	106	112
39	CCOc1ccc(NC(=O)CC2C(=O)N(c3ccccc3)C(=O)N2CCc2sccc2C)cc1 (configuration not stated)	107	110
40	COc1cccc(Cc2nc3ccccc3nc2SCC(=O)Nc2cccc(C)c2)c1	114	105
41	COc1cccc(CNC(=O)c2ccc3c(=O)n4nc(Nc5ccccc5)sc4nc3c2)c1	105	109
42	CCn1cc2nc(SCC(=O)Nc3ccccc3C(F)(F)F)n(Cc3ccc(C)cc3)c(=O)c2n1	104	104
43	O=C(CCC1N=C2c3ccccc3N=C(SCc3ccccc3F)N2C1=O)NCc1ccc(F)cc1 (configuration not stated)	105	104
44	COc1ccc(CCN2C(=O)c3oc4ccc(F)cc4c(=O)c3C2c2ccc(C(C)(C)C)cc2)cc1 (configuration not stated)	105	108
45	COc1ccc(NC(=O)C2CCN(S(=O)(=O)c3ccc4[nH]c(=O)ccc4c3)CC2)cc1Cl	107	96
46	CCc1ccccc1NC(=O)c1ccc2[nH]c(C)c(C)c2c1	115	113
47	O=C(Cn1c(=O)n(-c2ccccc2)c(=O)c2c3c(sc21)CCCC3)Nc1ccc(F)cc1F	105	106
48	CCc1ccc(NC(=O)CSC2=Nc3ccccc3C3=NC(CC(=O)NC4CCCCC4)C(=O)N23)cc1 (configuration not stated)	109	104
49	Cc1ccc(-c2nnc3c4ccccc4c(C)nn23)cc1NC(=O)c1ccccc1	106	109
50	O=C(Nc1ccc2nc(SCc3ccccc3)sc2c1)c1cccc(F)c1	108	104
51	Cc1ccc(-c2nn3c(-c4ccccc4)nnc3c3ccccc23)cc1	108	110
52	Cc1cc(C)cc(OCCSc2nc3ccc(NC(=O)COc4ccccc4)cc3s2)c1	109	114
53	CCCN1CCN(CCCNC(=O)c2c(C)nn(-c3ccc(F)cc3)c2-n2cccc2)CC1	105	105
54	CCOc1ccc(C(c2c(O)cc(C)n(CCOC)c2=O)N2CCN(c3ccccc3)CC2)cc1 (configuration not stated)	111	116
55	Cc1ccc(C)c(NC(=O)CCCN2C(=O)C(c3ccccc3)Oc3cccnc32)c1 (configuration not stated)	109	103
56	Cc1ccc(NC(=O)c2nnn(CC(=O)Nc3ccc(C)c(Cl)c3)c2N)c(C)c1	110	97
57	COc1ccc(C)cc1NC(=O)CSc1nc2ccccc2nc1N1CCOCC1	107	111
58	Cc1ccccc1-c1nn2c(=O)cc(CN3CCN(C(=O)c4ccccc4Br)CC3)nc2s1	113	107
59	CCOC(=O)c1cnc2ccc(Br)cc2c1NCCN1CCOCC1	107	107
60	CCN(C(=O)C1CCN(S(=O)(=O)c2cc(Br)cc3c2N(C(C)=O)CC3)CC1)c1cccc(C)c1	108	112
61	Cc1nc2ccc(S(=O)(=O)CCC(=O)Nc3ccc(Cl)cc3)cc2s1	108	113
62	Cc1cc(=O)oc2c3c(ccc12)OCN(Cc1ccccc1Cl)C3	108	113
63	CCS(=O)(=O)c1ncc(Cl)c(C(=O)N(Cc2ccccc2)c2ccc(OC)cc2)n1	116	115
64	Cc1ccc2nc(N(Cc3cccnc3)C(=O)CCS(=O)(=O)c3ccccc3)sc2c1	103	108
65	Cc1cccc(NC(=O)c2nnn(CC(=O)Nc3ccc(C(C)C)cc3)c2N)c1C	113	110
66	COc1cc(-c2noc(CN3CCN(c4cccc(Cl)c4)CC3)n2)cc(OC)c1OC	106	105
67	Cc1cccc2c(=O)cc(CSc3ccccc3NC(=O)c3cccc(Br)c3)[nH]c12	107	107
68	CCCOc1ccc(CN(C(=O)c2cc(=O)c3ccc(C)cc3o2)C2CCS(=O)(=O)C2)cc1 (configuration not stated)	105	110
69	CC(C)CC(=O)NCC(c1ccc2c(c1)OCO2)N1CCN(c2ccccc2F)CC1 (configuration not stated)	109	110
70	CCc1ccc(OCC(=O)Nc2cc3oc4ccccc4c3cc2OC)c(Br)c1	101	101
71	Cn1cc(S(=O)(=O)c2cccc(Cl)c2)c(=O)c2cc(F)c(N3CCCCC3)cc21	111	107
72	O=S(=O)(Nc1ccc(F)c(Cl)c1)c1ccc(Br)s1	109	113
73	Cc1cc(C)c(NC(=O)Cc2ccc(-n3c(C)nc4cccnc43)cc2)c(C)c1	102	107
74	O=C(Nc1cccc(F)c1)C1CCN(S(=O)(=O)c2cccc3nsnc23)CC1	107	110
75	CCc1ccc(CNC(=O)CCc2c(C)nn(-c3ccc(N4CCCCC4)nn3)c2C)cc1	101	102

Reformatted screen by screen: entries from further up
#69 CC(C)CC(=O)NCC(c1ccc2c(c1)OCO2)N1CCN(c2ccccc2F)CC1 (configuration not stated)
#70 CCc1ccc(OCC(=O)Nc2cc3oc4ccccc4c3cc2OC)c(Br)c1
#71 Cn1cc(S(=O)(=O)c2cccc(Cl)c2)c(=O)c2cc(F)c(N3CCCCC3)cc21
#72 O=S(=O)(Nc1ccc(F)c(Cl)c1)c1ccc(Br)s1
#73 Cc1cc(C)c(NC(=O)Cc2ccc(-n3c(C)nc4cccnc43)cc2)c(C)c1
#74 O=C(Nc1cccc(F)c1)C1CCN(S(=O)(=O)c2cccc3nsnc23)CC1

assay / compound | 69 | 70 | 71 | 72 | 73 | 74
Polio RdRp inh | 109 | 101 | 111 | 109 | 102 | 107
Polio RdRp inh intensity | 110 | 101 | 107 | 113 | 107 | 110

The list continues:
cpd	Structure	Polio RdRp inh	Polio RdRp inh intensity
76	COC(=O)c1ccccc1NC(=O)Cn1c(=O)n(CCCC(=O)NCc2ccccc2OC)c(=O)c2ccccc21	102	99
77	CC(C)c1ccc(NC(=O)C2CCN(c3nc(-c4ccc(C(C)C)cc4)no3)CC2)cc1	105	100
78	COc1ccc2c(c1)CC(C(=O)NCCN1CCN(c3ccccc3F)CC1)CO2 (configuration not stated)	111	115
79	CCc1ccc(C(=O)Nc2cccc(-c3nc4cc(C(C)C)ccc4o3)c2)cc1	108	113
80	Cc1nnc(N2CCCC(C(=O)Nc3ccccc3C(F)(F)F)C2)c2nn(-c3ccccc3)c(C)c12 (configuration not stated)	110	114
81	O=C(CN1N=C(c2ccccc2)CCC1=O)NCc1ccc(F)cc1Cl	108	100
82	COc1ccc(N2CCN(CCCNC(=O)c3ccc4nc(N5CCCCC5)sc4c3)CC2)cc1	105	108
83	COC(=O)CCc1sc(Nc2ccc(OC)cc2)nc1-c1ccc(OC)cc1	112	98
84	Cc1ccc(-c2cn(-c3ccc(Cl)cc3)c(S(=O)(=O)CC(=O)Nc3ccccc3)n2)cc1	104	102
85	Cc1nn(C)c2c1c(-c1ccccc1)cc(=O)n2Cc1ccc(Br)cc1F	112	112
86	COC(=O)c1cc2sc(C)cc2n1Cc1nc(-c2ccc(C)cc2)oc1C	114	108
87	O=C(CCCCn1c(=O)c2ccccc2n(CC(=O)Nc2ccc(F)cc2F)c1=O)NCc1ccccc1Cl	107	109
88	Cc1ccc2onc(CNC(=O)NCc3ccccc3)c2c1	108	116
89	CCN(CC)S(=O)(=O)c1ccc2c(c1)N(CC(=O)Nc1ccc(F)cc1F)C(=O)C1CCCN21 (configuration not stated)	114	124
90	COc1ccc(Cn2ccc3nc(C)c(C(=O)NCc4ccc(OC)cc4OC)cc3c2=O)cc1	105	119
91	CCOc1ccccc1NC(=O)CSc1nccn1Cc1ccc(F)cc1	111	110
92	CCOC(=O)c1ccccc1NC(=O)CSc1nc(=O)[nH]c2c1CCC2	107	104
93	COc1ccc(-c2csc3ncnc(Nc4cccc(OC)c4)c23)cc1	103	110
94	COc1cc(NC(=O)c2cccc(F)c2)ccc1NC(=O)c1cc2ccccc2o1	106	108
95	CCc1ccc(-n2nc(CO)c(C(=O)NCC(c3ccccc3)c3ccccc3)n2)cc1	109	108
96	O=C(Cn1c(=O)nc(-c2ccccc2)c2cc(Cl)ccc21)NCCCc1ccccc1	105	109
97	O=C(CCCCn1c(=O)[nH]c2ccsc2c1=O)N1CCN(c2cccc(C(F)(F)F)c2)CC1	110	112
98	Cn1c(=O)c2c(SCC(=O)Nc3ccccc3C(F)(F)F)nc(C3CCCC3)nc2n(C)c1=O	108	113
99	COc1ccc(C(=O)Nc2noc3ccccc23)cc1	120	123
100	CCc1cc2c(cc3c(=O)n(CC(=O)N4CCN(c5cc(Cl)ccc5C)CC4)ncn32)s1	107	108
101	COc1ccccc1CNC(=O)NCc1noc2ccc(C)cc12	103	102
102	Cc1ccc(NC(=O)C2CCN(c3nnc(C)c4c(C)n(-c5ccccc5)nc34)CC2)cc1Cl	115	113
103	CC(C)(C)OC(=O)N1CCC(c2c(C(=O)N3CCN(c4ccccc4)CC3)cnn2-c2ccccc2)CC1	101	101
104	Cc1ccc(-c2noc(CN(C3CCCCC3)S(=O)(=O)c3ccc(F)cc3)n2)cc1	106	104
105	COc1ccc(-c2nc3c(c(SCC(=O)N4CCCCC4)n2)Cc2c(CO)cnc(C)c2O3)cc1	110	109
106	COc1ccccc1-c1noc(CSc2nnc(-c3ccccc3)n2-c2ccc(C)c(C)c2)n1	109	115
107	CCOC(=O)N1CCC(NC(=O)c2ccc3c(c2)N(Cc2cccc(C)c2)C(=O)c2ccccc2S3(=O)=O)CC1	107	105
108	Cc1cc(C)c(S(=O)(=O)NCCc2sc(-c3cccnc3)nc2C)c(C)c1	101	101
109	CC(=O)Nc1ccc(NC(=O)c2cc3sccc3n2Cc2ccc(Cl)cc2)cc1	106	110

Screening data: PubChem, ICCB-Longwood Screening Facility, Harvard Medical School
